Screening results from PubChem BioAssay.
KCNQ2 inh: KCNQ2 potassium channel inhibitors, primary screen, cell-based, CHO-K1, FluxOR thallium flux, B-score (AID 2156); O88943; 20 min; active compounds read low; only compounds with negative scores are shown here; some inactives read as strong as hits; B-score at 10 µM; 310,000 tested, 1.1% active;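 active = fluorescence ratio B-score at most minus 3 library SDs, with starting brightness B-score within 2 library SDs, cut at about -5.5 in these data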
Target sequence (O88943 whole entry, looked up): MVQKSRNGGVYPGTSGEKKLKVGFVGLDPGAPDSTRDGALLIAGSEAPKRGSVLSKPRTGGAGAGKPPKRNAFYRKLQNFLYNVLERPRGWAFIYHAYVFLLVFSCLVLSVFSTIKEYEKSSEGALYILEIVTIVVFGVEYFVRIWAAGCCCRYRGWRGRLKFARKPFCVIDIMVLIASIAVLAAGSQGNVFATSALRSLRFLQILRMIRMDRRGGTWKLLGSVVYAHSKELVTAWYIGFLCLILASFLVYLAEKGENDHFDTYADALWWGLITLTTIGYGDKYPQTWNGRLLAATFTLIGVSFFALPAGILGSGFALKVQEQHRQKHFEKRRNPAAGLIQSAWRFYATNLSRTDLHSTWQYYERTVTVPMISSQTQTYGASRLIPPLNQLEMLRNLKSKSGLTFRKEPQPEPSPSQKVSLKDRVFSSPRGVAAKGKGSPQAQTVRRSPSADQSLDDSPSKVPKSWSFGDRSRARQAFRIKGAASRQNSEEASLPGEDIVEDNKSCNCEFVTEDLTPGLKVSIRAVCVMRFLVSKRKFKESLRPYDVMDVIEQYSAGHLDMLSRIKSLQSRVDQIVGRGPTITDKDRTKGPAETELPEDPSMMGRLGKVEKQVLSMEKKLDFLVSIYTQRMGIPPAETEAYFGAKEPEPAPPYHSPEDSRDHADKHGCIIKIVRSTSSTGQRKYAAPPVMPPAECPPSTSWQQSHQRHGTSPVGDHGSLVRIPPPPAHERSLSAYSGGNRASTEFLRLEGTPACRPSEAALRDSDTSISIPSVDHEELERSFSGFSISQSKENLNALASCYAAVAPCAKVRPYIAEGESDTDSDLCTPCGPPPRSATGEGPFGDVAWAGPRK
KCNQ2 inh baseline: recorded beside KCNQ2 inh, whose call it bears; B-score; measured here: initial fluorescence intensity artifact check;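 brightness before thallium and not channel activity; 0 = typical well and far values either way flag optical interference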
* = called active by the depositor; i = inactive.

item | Structure | KCNQ2 inh | KCNQ2 inh baseline
1 | COCCn1nnnc1C(c1ccc(OC)cc1OC)N1CCN(c2ccccc2)CC1 (stereo not drawn) | i | -0.63
2 | COc1ccc(OC)c(NC(=O)COC(=O)CCCN2C(=O)c3ccccc3C2=O)c1 | i | 0.51
3 | Cc1cc(C)c(S(=O)(=O)NCC(=O)NCc2ccccn2)c(C)c1 | i | 1.5
4 | COc1ccc(NC(=S)N2CCC(c3nc4ccccc4o3)CC2)c(OC)c1 | i | -0.97
5 | O=c1c2ccccc2oc2cc(OCc3cccc(F)c3)cc(O)c12 | i | 3.3
6 | O=C(CSC1=NS(=O)(=O)c2cc(F)ccc2N1)NCc1ccccc1Cl | i | -1.8
7 | O=C(N/N=C/c1ccccc1OC(=O)N1CCOCC1)c1cccs1 | i | -2.6
8 | O=[N+]([O-])c1ccc(N2CCCCC2)c(Cl)c1N1CCCCC1 | i | -0.7
9 | Cc1c(OCC(=O)NCCCN2CCOCC2)ccc2c1oc(=O)c1ccccc12 | i | 0.38
10 | CC(C)c1ccccc1OCC(=O)NCC(c1cccs1)N1CCOCC1 (stereo not drawn) | i | 0.24
11 | COc1ccccc1CNC(=O)C(CCSC)NS(=O)(=O)c1ccc2c(c1)oc(=O)n2C (stereo not drawn) | i | -0.05
12 | COc1ccccc1NC(=O)COc1ccccc1C(=O)Nc1ccccc1 | i | -0.18
13 | C=CCNC(=O)c1cc2c(=O)n3cc(C)ccc3nc2nc1NCC1CCCO1 (stereo not drawn) | i | 0.83
14 | COc1cc(OC)cc(C(=O)NNC(=S)NC2CC2)c1 | i | 2.3
15 | O=C(NCCCN1CCN(CCCNC(=O)c2cccc(Cl)c2)CC1)c1cccc(Cl)c1 | i | 2
16 | COCCCNC(CC(=O)Nc1cc(C)cc(C)c1)C(=O)O (stereo not drawn) | i | 2.3
17 | COc1cccc(NC(=O)Cn2c(=O)oc3ccccc32)c1 | i | -0.02
18 | COc1ccc(/C(C)=N/NC(=O)c2ccc(N(C)C)cc2)cc1 | i | -1.4
19 | O=C(CSc1ccsc1[N+](=O)[O-])N1CCN(c2ccccc2)CC1 | i | -0.93
20 | COCCNC(=O)CSc1nc2ccccc2c(=O)n1CCC(=O)N1CCN(c2ccccc2)CC1 | i | 0.28
21 | CC(C)Cn1c(=O)c2ccccc2n2c(CCC(=O)NCc3ccccn3)nnc12 | i | 0.9
22 | CCC(=O)N/C(N)=N/c1nc(C)c2cc(OC)ccc2n1 | i | -1.8
23 | CCNC(=O)/C(C#N)=C/c1c(N2CCN(Cc3ccc4c(c3)OCO4)CC2)nc2c(C)cccn2c1=O | i | -1.7
24 | O=C(NCc1cccnc1)c1ccc2c(c1)N(Cc1ccccc1)CCS2 | i | -0.79
25 | Fc1c(F)c(F)c(/C=N/NC(=S)Nc2cccnc2)c(F)c1F | i | -0.89
26 | CC1(C)CC(CC(=O)O)(c2ccccc2)CCO1 (stereo not drawn) | i | -0.59
27 | CC1=NNC(=O)C1CC(=O)N/N=C(\C)c1cccs1 (stereo not drawn) | i | -0.86
28 | Cc1ccccc1OC1C(=O)N(Cc2ccc3c(c2)OCO3)C1c1sccc1C (stereo not drawn) | -6* | -2*
29 | O=C(Cn1ncc2c([nH]c3ccccc32)c1=O)N1CCOCC1 | i | 0.02
30 | O=C(NCc1ccco1)c1ccc(-c2cccc(Cl)c2)o1 | i | -0.18

Entries by screen from above:
Nos. 11–19 in KCNQ2 inh, in turn: i, i, i, i, i, i, i, i, i
Nos. 11–19 in KCNQ2 inh baseline, in turn: -0.05, -0.18, 0.83, 2.3, 2, 2.3, -0.02, -1.4, -0.93

(cont.)
item | Structure | KCNQ2 inh | KCNQ2 inh baseline
31 | O=C(CN1C(=O)CCS(=O)(=O)c2ccccc21)NCc1ccc(F)cc1 | i | -0.08
32 | CCCCCN(C(=O)COC(=O)Cc1c(C)nc2ccccc2c1C)c1c(N)n(CCCC)c(=O)[nH]c1=O | i | -0.46
33 | Cc1ccc(C)c(NS(=O)(=O)c2cc(C(=O)Nc3ccccc3-c3ccccc3)ccc2Cl)c1 | -7.1* | -1.6*
34 | CCOc1ccccc1CNC(CC)CO (stereo not drawn) | i | 0.33
35 | C=CCn1nnnc1SCC(=O)Nc1ccc(C(=O)OC)cc1 | i | 2.3
36 | COC(=O)c1ccc(N2CCCCC2)c(NC(=O)c2ccco2)c1 | i | -0.03
37 | O=C(O)c1sccc1S(=O)(=O)N1CCN(c2ccc(C(F)(F)F)cn2)CC1 | i | -0.68
38 | CCCC(=O)NCc1ccncc1 | i | 1.7
39 | C=C(C)Cn1c(CCNC(=O)C(C)C)nc2ccccc21 | i | -0.5
40 | COc1ccc(N(CC(=O)NC2CCCC2)C(=O)Cn2nnc(-c3ccc(OC)c(OC)c3)n2)cc1 | i | 2.7
41 | COc1cccc(C(=O)Nc2cc(C(=O)NCCc3ccccc3)ccc2Cl)c1 | i | 0.43
42 | CCCOc1ccc(C2C3=C(CCCC3=O)N(CC(=O)O)C3=C2C(=O)CCC3)cc1OCC | i | 0.17
43 | C=CCOc1ccccc1CN(C(=O)CCl)c1ccc2c(c1)OCO2 | i | -0.03
44 | Cc1ccnc(N/N=C/c2ccco2)n1 | i | -0.25
45 | CCCc1nnc(-c2cc(OC)c(OC)c(OC)c2)o1 | i | 3.4
46 | Cc1ccc(N2C(=O)C3C4C=CC(CNC(=S)Nc5cccc(Cl)c5)(O4)C3C2=O)cc1 (stereo not drawn) | i | 0.01
47 | Cc1ccc(C(=O)NC(C)c2ccccc2)cc1S(=O)(=O)N1CCOCC1 (stereo not drawn) | i | 1.8
48 | COc1ccc(-n2nnnc2SCC(=O)Nc2ccccc2N2CCOCC2)cc1 | i | -0.03
49 | O=C1CCCC(O)=C1C=NCCc1ccccc1 | i | -0.2
50 | CC1CN(C2=Nc3cccc4cccc2c34)CC(C)O1 (stereo not drawn) | i | 3.2
51 | Cc1ccc(CN2CC(C(=O)Nc3ccccc3N3CCCC3)CC2=O)cc1 (stereo not drawn) | i | -0.74
52 | COc1cccc(OC)c1C(=O)Nc1sc2c(c1C(N)=O)CCN(Cc1ccccc1)C2 | i | 0.26
53 | O=C(Nc1ccc[n+](CC(=O)c2cccc3ccccc23)c1)c1ccccc1 | i | -0.01
54 | CCCn1nnc(NC(=O)Cc2ccccc2)n1 | i | -0.01
55 | Cc1ccc(S(=O)(=O)CCC(=O)Nc2ccc(F)cc2)cc1 | i | -1.5
56 | Cc1ccn2cc(-c3cccc(S(=O)(=O)N4CCCCC4)c3)nc2c1 | i | 0.91
57 | CC1(C)Cc2c(sc3c2c(=O)n(-c2ccc(Cl)cc2)c(=O)n3CC(N)=O)CO1 | i | -1.3
58 | CSc1nsc(SCC(=O)Nc2ccc(F)cc2F)n1 | i | 0.65
59 | CC(C)OCCCn1c(-c2ccc(Br)cc2)c[nH]c1=S | i | -1.3
60 | O=C(CSc1nnc(CNC(=O)c2ccccc2)o1)NCc1ccccc1Cl | i | -1.3

A different layout for some results above.
59: CC(C)OCCCn1c(-c2ccc(Br)cc2)c[nH]c1=S
48: COc1ccc(-n2nnnc2SCC(=O)Nc2ccccc2N2CCOCC2)cc1
60: O=C(CSc1nnc(CNC(=O)c2ccccc2)o1)NCc1ccccc1Cl
56: Cc1ccn2cc(-c3cccc(S(=O)(=O)N4CCCCC4)c3)nc2c1
37: O=C(O)c1sccc1S(=O)(=O)N1CCN(c2ccc(C(F)(F)F)cn2)CC1
58: CSc1nsc(SCC(=O)Nc2ccc(F)cc2F)n1
38: CCCC(=O)NCc1ccncc1

screen / no.	59	48	60	56	37	58	38
KCNQ2 inh	i	i	i	i	i	i	i
KCNQ2 inh baseline	-1.3	-0.03	-1.3	0.91	-0.68	0.65	1.7

(listing goes on)
item | Structure | KCNQ2 inh | KCNQ2 inh baseline
61 | Cc1sc2ncnc(Sc3ccccc3C(=O)Nc3ccc(Br)cc3)c2c1C | i | -0.52
62 | CCOc1ccc(NC(=O)CN(C)C(=O)CCCc2nc3ccccc3c(=O)[nH]2)cc1OCC | i | -0.31
63 | COc1ccc(CCNC(=O)c2ccc(OC)c(OC)c2)cc1OC | i | 1.9
64 | Cc1cc(OCC(=O)NCCc2ccc(S(N)(=O)=O)cc2)c2c(C)cc(=O)oc2c1 | i | 1.1
65 | O=C(OCC(=O)N1CCN(C(=O)c2ccco2)CC1)c1sc2ccccc2c1Cl | i | 0.66
66 | CC(C)CCN1CCN(Cc2cn[nH]c2C2CCCCC2)CC1CCO (stereo not drawn) | i | 1.1
67 | CC1CCCN(C(=O)c2cc3c(-c4ccc(Cl)cc4)nn(C)c3s2)C1 (stereo not drawn) | i | 0.51
68 | COc1ccc(NC(=O)C(CCS(C)(=O)=O)NC(C)=O)cc1 (stereo not drawn) | i | -0.56
69 | Fc1ccc(C2CC(c3ccco3)=NN2c2ccccc2)cc1 (stereo not drawn) | i | 0.61
70 | OC(C#Cc1ccccn1)c1cccs1 (stereo not drawn) | i | 1
71 | O=S(=O)(c1ccc(OCC(O)CNC23CC4CC(CC(C4)C2)C3)c(Cl)c1)N1CCOCC1 (stereo not drawn) | i | 0.98
72 | Clc1ccc(CNC2CCN(Cc3ccccc3)CC2)cc1 | i | 1.6
73 | CNC(=O)COc1ncnc2sc(C)c(C)c12 | i | 0.84
74 | Cc1cc(NC(=O)CSc2cn(CCNC(=O)c3ccc(F)cc3)c3ccccc23)no1 | i | -0.75
75 | CCN=C1SC(CC(=O)Nc2ccccc2)C(=O)N1CC (stereo not drawn) | i | -0.73
76 | COc1ccccc1N1CCN(c2nccc(C)n2)CC1 | i | 2.5
77 | NC(=O)CSc1nnc2ccc(-c3ccco3)nn12 | i | -1.1
78 | Oc1ccc2oc3c(c2c1)CCCC3 | i | 0.67
79 | O=C(c1ccc(Cl)cc1)C1C2C(=O)N(c3ccccc3)C(=O)C2C2CCCN21 (stereo not drawn) | i | 5.1
80 | O=C(O)CCSc1nnc(-c2ccc3c(c2)OCO3)o1 | i | -0.04
81 | O=C1c2ccccc2C(=O)N1CCCCN(C(=O)c1cc([N+](=O)[O-])ccc1Cl)c1ccc(Cl)cc1 | i | 0.5
82 | O=C(O)CSCC(=O)N1CCN(c2ncnc3scc(-c4ccccc4)c23)CC1 | i | -2.7
83 | Cc1cccc(NC(=O)CSc2n[nH]c(-c3ccncc3)n2)c1C | i | 1.5
84 | O=C(O)C1C2C=CC3(CN(C4CCCC4)C(=O)C13)O2 (stereo not drawn) | i | -0.3
85 | CCc1nnc(NC(=O)c2cc(S(=O)(=O)N3CCN(c4ccccc4)CC3)ccc2Cl)s1 | i | -1.2
86 | C/C(CC(=O)NC(C)(C)C)=N\NC(=O)c1ccccc1N | i | -0.35
87 | CN(C)CCCNC(=O)c1cc2c3ccccc3n(C)c2s1 | i | -0.71
88 | O=C1CCCc2ccccc2N1Cc1ccccc1 | i | -0.34
89 | CC(C)N(C(=O)C(=O)c1cccn1-c1ccccc1C#N)C(C)C | i | 0.22
90 | Cc1cc(N)n2nc(C(F)(F)F)nc2n1 | i | 0.32
91 | O=C1CCN(CCc2ccccc2)CCN1[C@H](COc1ccccc1)c1ccccc1 | i | -1.7
92 | COc1ccc(S(=O)(=O)N2CCN(CCc3ccccc3)CC2)c(OC)c1 | i | 0.62
93 | COCCOC(=O)C1=C(C)Nc2cc(=O)[nH]c(=O)n2C1c1cccc([N+](=O)[O-])c1 (stereo not drawn) | i | -0.64
94 | O=[N+]([O-])c1ccc(N2CCCC2)cc1N1CCCC1 | i | -1
95 | CCCCOc1ccccc1NC(=O)c1ccc(=O)[nH]c1 | i | 0.51
96 | Cc1noc(C)c1CSc1ccccc1C(=O)N(C)CC(=O)Nc1cccc(F)c1 | i | -0.91
97 | Cc1nc2c(c(C)nn2-c2ccccc2)c(C)c1Cl | i | 0.42
98 | O=C(CSc1cccc[n+]1[O-])c1cccs1 | i | -0.02
99 | Cc1nn(-c2ccccc2)c(Cl)c1C(=O)NCc1ccccc1F | i | -0.98
100 | O=S(=O)(c1ccc(F)cc1)N1CCCC1 | i | 0.41
101 | O=C1/C(=C/c2cccc(F)c2)Oc2cc(O)ccc21 | i | 17
102 | Cc1ccc(NC(=O)c2cccs2)cc1NC(=O)c1cccc(F)c1 | i | -0.01
103 | Cc1ccc(C(=O)Cn2c(C(=O)OCCO)cc3ccccc32)cc1 | i | -0.08
104 | Cn1cccc1Cc1nnc(SCC(N)=O)n1-c1ccc(F)cc1 | i | -0.33
105 | Cc1nnc2ccc(-c3cccc(NS(=O)(=O)c4cc(F)ccc4F)c3)nn12 | i | -1.8
106 | COc1ccc(Oc2ncnc3c2oc2ccc(Br)cc23)cc1 | i | 2.8
107 | O=C(N/N=C/c1cc(Cl)cc([N+](=O)[O-])c1O)C(O)(c1ccccc1)c1ccccc1 | i | -2.9
108 | COc1ccc(CNC(=O)CNS(=O)(=O)c2ccc(Cl)cc2)cc1 | i | -0.16
109 | Cc1c(-c2ccccc2)[nH]n2c(=O)c3c(nc12)CCCC3 | i | -0.1
110 | CC(=O)Oc1ccc(C(c2ccc(OC(C)=O)cc2)c2ccccn2)cc1 | i | -0.03
111 | CCOC(=O)C1C(=O)C=C(c2cccc(NS(C)(=O)=O)c2)CC1c1ccco1 (stereo not drawn) | i | -0.69
112 | CCN1CCN(CCNC(=O)c2ccc(/C=C3/Sc4ccccc4N(Cc4cccc(C)c4)C3=O)cc2)CC1 | i | -0.74
113 | COc1cccc(CN2CCN(C(c3ccccc3)c3ccccc3)CC2)c1O | i | 0.15
114 | CCOc1ccc(CN2CCN(C(=O)c3cccc4ccccc34)CC2)cc1 | i | -0.17
115 | NC(=O)c1ccc(NC(=O)CCN2C(=O)c3ccccc3C2=O)cc1 | i | 0.28
116 | N#Cc1ccccc1NC(=O)COc1ccc2c(c1)OCO2 | i | 1.1
117 | CCOc1ccc(C(=O)c2cnc3ccccc3c2N2CCN(CC)CC2)cc1 | i | -0.28
118 | CSc1nc2ccccc2c(=O)n1C1CCCCC1 | i | -0.11
119 | COc1ccc(N2CCN(C(c3ccccc3OC)c3nnnn3Cc3ccco3)CC2)cc1 (stereo not drawn) | i | 0.46
120 | Cc1ccsc1-c1nc(CSCC(=O)NCCN2CCCC2)c(C)o1 | i | 0.94
121 | Cc1cccc(N2CCN(S(=O)(=O)c3cccc4nonc34)CC2)c1C | i | 0.52
122 | CCOC(=O)c1cnn(CCOC(=O)c2ccc(F)cc2)c1NC(=O)c1ccc(F)cc1 | i | -0.52

The list is partial, so the mix of outcomes need not match the whole.
